RE007 growth inh: less growth of the S. pombe RE007 Vpr strain | S. pombe RE007 Vpr strain, BacTiter-Glo ATP luminescence, 24 h; control for the full effect not named in the record | Potency, µM (series often up to 92.2 µM), for inactives: at the highest dose activity change, negative = less growth | actives 0.21% (n = 360,000); active = well fitted falling curve with a large enough effect; inconclusive = small, poorly fitted or top-dose-only effect; inactive = no such curve, though single readings can be large or run the other way;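 further: on the % scale 0 is the no-effect control and ±100 the full control effect; nearly all actives have a fitted effect of over 50% in size; the assay follows cell death caused by Vpr and the record does not say whether a fall means rescue or toxicity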
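Fission yeast RE007 carrying one integrated HIV-1 vpr copy, seeded at OD 0.01 in PMG+AL medium with 23 nL pinned compound. Grown 24 h at 30 degrees; viability read by BacTiter-Glo luminescence after 5 min.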
NS1 function inh: blocks influenza NS1 protein function; S. cerevisiae slowed by influenza A NS1, growth recovery by OD600; Potency, µM (top dose mostly 46.1 µM), for the others: at the top dose activity, positive = more growth; actives 0.4% (n = 270,000); active means well fitted rising curve with a large enough effect; inconclusive means small, poorly fitted or top-dose-only effect; inactive means no such curve, though single readings can be large or run the other way; further: nearly all actives have a fitted effect of over 50% in size
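Read-out: OD600 growth recovery of NS1-expressing budding yeast. Cells grown overnight at 30C in -URA glucose medium, washed, resuspended and diluted 1:100 in 2% galactose assay medium, pH 6.0. Same strain lacking NS1 served as positive control.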
LASV entry inh: Lassa virus entry inhibition; Lassa virus pseudotype entry inhibition, cell reporter; control for the full effect not named in the record; Potency, µM (top dose mostly 37.9 µM), for the others: at the top dose activity change, negative = inhibition, hits mostly inhibitors; actives 1.2% (n = 300,000); AID 540256; active means well fitted inhibition curve with a large enough effect; inconclusive means small, poorly fitted or top-dose-only effect, or effect the other way; inactive means flat fitted curve, though single readings scatter; tested in HEK293 cells; further: on the % scale 0 is the no-effect control and ±100 the full control effect; nearly all actives have a fitted effect of over 50% in size; luciferase read-out
Cruzain inh noDet: blocks cruzain activity in detergent-free assay. P25779. purified cruzain, Z-FR-AMC fluorescence, no detergent. Potency, µM, inactives show max response, negative = inhibition, hits mostly inhibitors. actives 2.3% (n = 200,000);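 further: plate controls were enzyme without inhibitor for no effect and buffer without enzyme for full effect; nearly all actives have a fitted effect of over 40% in size; top concentration of the series not given in the record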
Target sequence (P25779 123-467 limits assumed): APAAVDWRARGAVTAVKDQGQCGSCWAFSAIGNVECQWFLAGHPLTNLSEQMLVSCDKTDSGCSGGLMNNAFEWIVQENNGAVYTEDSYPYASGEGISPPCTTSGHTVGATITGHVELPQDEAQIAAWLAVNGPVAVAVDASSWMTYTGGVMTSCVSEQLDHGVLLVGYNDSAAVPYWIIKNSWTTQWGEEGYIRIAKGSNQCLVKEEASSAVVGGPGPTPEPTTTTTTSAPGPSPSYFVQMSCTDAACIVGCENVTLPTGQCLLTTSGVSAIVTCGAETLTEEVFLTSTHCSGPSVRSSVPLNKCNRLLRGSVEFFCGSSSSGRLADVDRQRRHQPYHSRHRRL
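Detergent-free condition (0.00005% Triton X-100) in acetate buffer pH 5.5 with DTT. 1.5 nM enzyme and compound were pre-mixed 15 min, then 2 uM Z-FR-AMC substrate added; reaction progress from fluorescence change between first and third reads (60 s).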
Cruzain inh Det: cruzain (T. cruzi) inhibition with detergent; P25779; purified cruzain, Z-FR-AMC fluorescence, 0.01% Triton; Potency, µM, without a hit: max response, negative = inhibition, actives largely listed as inhibitors; actives 0.43% (n = 200,000); AID 1478;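 further: plate controls were neutral wells for no effect and buffer without enzyme for full effect; nearly all actives have a fitted effect of over 40% in size; top concentration of the series not given in the record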
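Cruzain (1.5 nM) preincubated 15 min at RT with compound in 100 mM sodium acetate pH 5.5, 5 mM DTT, 0.01% Triton X-100. Reaction started with 2 uM Z-FR-AMC; AMC fluorescence (ex 360/em 450 nm) change over 60 s gave rate.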
StopGo reporter: FMDV 2A StopGo reporter, luciferase signal. Potency, µM (doses to about 57.9 µM), inactives show at the highest dose signal change, negative = less light. actives 1.2% (n = 410,000). human cells with a luciferase reporter of 2A StopGo recoding; control for the full effect not named in the record; active = well fitted falling curve with a large enough effect; inconclusive = small, poorly fitted or top-dose-only effect; inactive = no such curve, though single readings can be large or run the other way; tested in HEK293T cells; further: on the % scale 0 is the no-effect control and ±100 the full control effect; nearly all actives have a fitted effect of over 45% in size; luciferase light after 4 h
Marburg entry inh: blocks Marburg virus binding to or entry into cells; Marburg virus pseudotyped entry inhibition, cell reporter; control for the full effect not named in the record; about a third of the inactives were read at about 46 µM; Potency, µM (top dose mostly 37.8 µM), inactives show at the highest dose activity change, negative = inhibition, usual class: inhibitors; actives 1.8% (n = 300,000); active = well fitted inhibition curve with a large enough effect; inconclusive = small, poorly fitted or top-dose-only effect, or effect the other way; inactive = flat fitted curve, though single readings scatter; tested in HEK293 cells; about a fifth of its hits are not listed in these tables; further: on the % scale 0 is the no-effect control and ±100 the full control effect; luciferase read-out
SARS PLP yeast: SARS-CoV PLP inhibition in yeast | Potency, µM (doses to about 32.9 µM), for inactives: top-dose activity, positive = growth rescue | actives 0.19% (n = 330,000) | S. cerevisiae expressing SARS-CoV PLpro, growth rescue; control for the full effect not named in the record | AID 485353; active means well fitted rising curve with a large enough effect; inconclusive means small, poorly fitted or top-dose-only effect; inactive means no such curve, though single readings can be large or run the other way; further: 0% is about no effect; nearly all actives have a fitted effect of over 55% in size; growth read by luminescence after 48 h
The depositor's hits bear a star; u = inconclusive; x = no result given; & = joins results of further samples; [ ] = remark or other dose. Unless noted, the call rests on the fitted dose curve; in most records, active means well fitted curve in the direction sought with a large enough effect; inconclusive means small, poorly fitted or top-dose-only effect, or another doubt; inactive means no such curve, though single readings can be large; an effect the other way counts as inactive or inconclusive. Potency means the concentration at half of the fitted maximal effect.

SMILES	RE007 growth inh	NS1 function inh	LASV entry inh	Cruzain inh noDet	Cruzain inh Det	StopGo reporter	Marburg entry inh	SARS PLP yeast
NC(=O)c1ccc[n+](CC(=O)OCCC23CC4CC(CC(C4)C2)C3)c1	22.8%	10.9%	0.1%	1.2%	7.7%	0.0%	12.3%	2.7%
COCCOC(=O)C1=C(C)NC(=O)NC1c1ccc(-c2cc(Cl)ccc2Cl)o1 (stereo not given)	-6.3%	2.8%	u	x	x	-29.9%	u	-0.4%
COc1ccccc1-c1nn2c(-c3ccco3)nnc2s1	2.6%	-57.6%	10.3%	u	-4.7%	72.3%[activator]	u	-8.6%
CCC1(CC)C(=O)NN(c2ccccc2)C1=O	1.8%	6.5%	7.6%	-11.2%	-0.6%	-14.1%	0.9%	-8.6%
CC(=O)Nc1nnc(CSCc2ccccc2F)s1	9.6%	0.0%	-7.1%[46.1 µM]	x	x	31.2%[activator]	u	-1.1%
CCN(CC)C(=S)SC1=CCS(=O)(=O)C1	-8.3%	x	-0.4%	x	x	48.4%[activator]	-30.9%[46.1 µM]	1.1%
CCOC(=O)C1CCN(C(=O)COc2ccc([N+](=O)[O-])cc2)CC1	1.1%	1.3%	-5.0%[46.1 µM]	x	x	-20.2%	13.9%[46.1 µM]	0.3%
COc1cccc(CCNCc2ccc(SC)cc2)c1	u	1.5%	5.3%	22.6%	-0.7%	2.9%	u	-7.4%
COc1ccccc1N1CC(C(=O)OCC(=O)Nc2cc(C)on2)CC1=O (stereo not given)	-6.8%	x	-5.0%	x	x	-12.0%	10.9%[46.1 µM]	3.5%
c1ccc2[nH]c(CSc3nc4ccccc4o3)nc2c1	-21.0%	-18.7%	-7.6%	12.6µM*	-18.1%	x	9.9%	-30.1%
CN(C)CC1CSCCC1(O)c1ccc(C(F)(F)F)cc1 (stereo not given)	-7.5%	7.0%	u	6.7%	-1.2%	-22.6%	11.3%	14.6%
NC(=O)c1nsc(C(=O)N(c2cccc(F)c2)C(C(=O)NCC2CCCO2)c2ccc3ncccc3c2)c1N (stereo not given)	-22.1%	-3.5%	-9.2%	x	x	-3.4%	-14.9%[46.1 µM]	3.3%
COc1ccc(CN(CC(=O)NCc2ccc(F)cc2)C(=O)CCC(=O)Nc2cc(C)ccn2)cc1	0.6%	4.8%	u	x	x	8.9%	-11.7%[46.1 µM]	-2.4%
CCCCn1ccnc1C(=O)c1cc(S(=O)(=O)N2CCOCC2)ccc1C	-6.4%	13.5%	-21.0%	20.1%	1.1%	-12.4%	u	-6.6%
CCOC(=O)c1ccc(NC(=S)NCCc2ccc(OC)c(OC)c2)cc1	-21.0%	-1.5%	-15.5%	x	x	-5.5%	-3.1%[46.1 µM]	-1.4%
O=C(N/N=C/C(Br)=C\c1ccccc1)c1n[nH]c2c1CCC2	u	-11.4%	u	u	-10.7%	4.2%	u	-44.5%
Cc1ccccc1/C=N/n1c(C2CCCCC2)n[nH]c1=S	6.8%	1.8%	x	x	x	u	x	-3.7%
CCN(CCCNC(=O)C1CCC(=O)N1Cc1ccc(F)cc1)c1cccc(C)c1 (stereo not given)	-16.7%	-9.4%	-9.3%	4.9%	1.9%	-22.4%	-9.8%	5.2%
Fc1ccc(Nc2ccc3ccccc3n2)c(F)c1	u	1.6%	x	x	x	-56.3%	x	-8.1%
CCn1c(SCC(=O)C(C)(C)C)nnc1-c1cccnc1	11.1%	-4.5%	5.1%	-6.6%	2.4%	x	12.3%	2.2%
CCCNC(=O)c1ccc2c(=O)c(O)c(-c3cccc(Br)c3)[nH]c2c1	-18.8%	-2.9%	x	x	x	-12.5%	x	u
NS(=O)(=O)c1ccc(CCNC(=O)CSc2ncnc3ccccc23)cc1	-23.5%	x	-0.3%[46.1 µM]	x	x	-2.1%	0.3%[46.1 µM]	-1.6%
COc1cccc(NC(=O)c2ccc(CN3CCN(c4ccccc4)CC3)cc2)c1	-7.9%[3.69 µM]	-31.6%	u	u	6.1%	u	5.8µM*	-11.4%
Cc1ccc2c(c1)C1CN(C)CCC1N2C(=O)c1cccc(S(=O)(=O)N(C)C)c1 (stereo not given)	-16.7%	3.6%	x	x	x	14.1%	-11.2%[46.1 µM]	0.1%
CCN(CC)CCn1c(-c2ccc(C)cc2)nc(=S)c2c1CC(C)(C)OC2	-12.7%	0.8%	6.2%	x	x	-5.2%	-5.3%	1.1%
CCCc1cc(=O)oc2cc(C)cc(OC(C)C(=O)NCC3CCC(C(=O)O)CC3)c12 (stereo not given)	-8.5%	4.1%	x	x	x	-3.6%	x	4.1%
O=C(/C=C/c1ccc(N2CCCCC2)c([N+](=O)[O-])c1)c1ccc(O)cc1	-8.5%	-4.8%	-62.2%[46.1 µM]	x	x	-15.5%	u	-1.4%
Cc1ccc(C(=O)OCC(=O)NCCNC(=O)COC(=O)c2ccc(C)o2)o1	24.3%	x	-4.9%	x	x	-2.0%	-1.0%	-0.2%
CCOc1ccccc1C(=O)Nc1ccc(S(=O)(=O)N2CCN(C)CC2)cc1	-4.1%	1.8%	x	x	x	-7.5%	x	3.3%
Cc1cc(OCC(=O)OC(C)C)c2c3c(c(=O)oc2c1)CCCC3	0.3%	-1.3%	-20.1%	u	-7.1%	u	u	-0.7%
CCN(CC)c1ccc(N)cc1S(=O)(=O)Nc1ccc(OC)cc1	-2.3%	12.2%	3.0%	x	x	56.3%[activator]	6.0%[46.1 µM]	-0.1%
O=[N+]([O-])c1ccc(CNc2cccc(Cl)c2)s1	u	-32.7%	-3.2%	x	x	u	u	-14.8%
CC1(c2ccc3c(c2)OCO3)NC(=O)N(CC(=O)NCCC2=CCCCC2)C1=O (stereo not given)	-4.6%	-6.0%	u	0.3%	1.1%	-3.0%	17.0%	0.6%
O=C(O)C(c1ccccc1)C(O)c1ccc2c(c1)OCO2 (stereo not given)	1.7%	x	0.7%[46.1 µM]	x	x	6.4%	u	x
CC(C)Sc1ccccc1C(=O)Nc1ccc2c(c1)n(C)c(=O)n2C	-13.7%	-4.8%	u	x	x	u	-16.8%	1.2%
CN1CCN(C(=S)c2ccc([N+](=O)[O-])cc2)CC1	-13.6%	3.1%	0.4%	11.5%	-0.6%	-0.8%	-13.0%	-8.4%
CCOC(=O)CN(C(=O)CNC(=O)c1ccco1)C(C(=O)NC1CCCCC1)c1cccs1 (stereo not given)	7.7%	-0.1%	u	-3.6%	-3.2%	-3.2%	6.0%	-2.1%
O=c1cc(-c2ccccc2Cl)oc2c(Br)ccc(O)c12	-1.8%	10.7%	u	u	1.0%&-3.2%	49.8%[activator]	u	-0.6%
CCn1cc(C(=O)O)c(=O)c2cc(OC)ccc21	11.6%	-75.2%	0.6%	-2.3%	-2.3%	16.7%	u	3.4%
O=C(NN=Cc1ccc2c(c1)OCO2)c1ccncc1	-8.9%	x	34.8%	x	x	37.5%[activator]	21.1%	x
O=C(Nc1ccc(Cl)cc1)C1=Cc2ccccc2OC1	-10.6%	-14.1%	u	-13.9%	-13.7%	35.3%[activator]	u	-19.6%
O=C(CCSc1nnc(-c2ccncc2)o1)Nc1ccc(Cl)cc1	21.2%	-164.3%	-4.5%	-3.9%	-0.2%	-24.1%	u	-13.0%
CCCS(=O)(=O)c1c(S(=O)(=O)CCC)c2ccc(C(N)=O)cn2c1C(=O)c1ccc(OC)cc1	9.2%	-2.7%	u	x	x	9.5%	-15.0%[46.1 µM]	0.3%
N#Cc1ccc(-c2ccccc2)nc1SCC(=O)c1cccc(Cl)c1	23.3%	13.6%	u	12.6µM*	1.8%	-5.1%	2.8%	3.7%
COc1cccc(-c2nc(SCc3ccc(C)cc3)n3[nH]c(=O)cc3n2)c1	x	x	u	3.7%	2.6%	-19.3%	x	x
COc1ccc(-c2nc(=S)c3c(n2Cc2cccnc2)CC(C)(C)OC3)cc1	-15.7%	-0.2%	25.8%	x	x	-12.2%	5.7%[46.1 µM]	0.7%
CN(C)CCNC(=O)c1ccc(COc2ccc(Cl)cc2Cl)cc1	-18.5%	-17.6%	u	1.7%	-8.0%	-14.5%	8.2µM*	-8.5%
Cc1ccccc1NC(=O)CCNS(=O)(=O)c1ccc2c(c1)CCC(=O)N2	6.9%	2.9%	x	x	x	39.3%[activator]	x	-2.6%
CCCSc1nc2c(c(=O)[nH]c(=O)n2C)n1CC(O)COc1ccccc1 (stereo not given)	-19.8%	-0.7%	-18.3%	x	x	u	u	0.0%
O=c1[nH]c2ccccc2n1C1CCCCC1	3.4%	-46.0%	13.8%	0.8%	5.5%	-15.0%	14.4%	-2.0%
C=CCSC1=N/C(=C\c2cc(OC)c3c(c2)OCO3)C(=O)S1	8.5%	-36.1%	7.1%	u	-6.6%	u	-5.8%	3.0%
Cc1cc(N)nc(=O)n1C1CC(O)C(CO)O1 (stereo not given)	14.3%	x	u	x	x	-13.7%	15.4%	x
CS(=O)(=O)c1cccc(C(=O)Nc2nnc(C3=COCCO3)o2)c1	7.2%	x	-15.2%	x	x	-13.7%	u	-0.7%
O=C(C1=C[C@H](c2ccccc2)C[C@H](OCCCCO)O1)N1CCN(Cc2ccccc2)CC1	3.7%	-6.4%	x	x	x	-19.6%	x	0.3%
O=C(NCCCn1ccnc1)c1cn(Cc2ccc(F)cc2)nn1	-3.7%	-6.5%	-6.5%	-0.6%	-0.9%	-21.2%	0.4%	4.2%
CC1=Nc2ccccc2N=C(NC(=O)CSc2nnnn2-c2ccccc2)C1c1ccccc1 (stereo not given)	3.0%	-9.6%	-13.0%	u	-0.4%	-27.7%	u	x
O=C(CN(C(=O)CNC(=O)c1ccco1)c1ccc(F)cc1)NC1CCCCC1	15.9%	-6.3%	-15.4%[46.1 µM]	x	x	0.0%	0.4%[46.1 µM]	0.4%
Cc1nc2ccc(NC(=O)c3nn(CC(C)C)c(=O)c4ccccc34)cc2s1	4.1%	6.8%	8.9%	u	-6.3%	-12.6%	17.4%	19.7%
COc1ccc(NC(=O)CCCn2c(=O)c3cccn3c3cccnc32)cc1Cl	x	x	17.3%[46.1 µM]	4.7%	-2.1%	4.4%	x	x
COc1ccc(N(C)C(=O)c2ccc(NC(=O)CCS(=O)(=O)c3cccs3)cc2)cc1	-13.7%	-0.4%	6.0%	x	x	-13.5%	17.5%[46.1 µM]	0.7%
Cc1ccc(S(=O)(=O)N2CCCN(C(=O)c3ccc(-n4nccc4C)cc3)CC2)cc1	-4.2%	x	12.3%	x	x	-29.6%	-28.2%[46.1 µM]	-2.8%
